From PubChem BioAssay
Ba CapD inh: Bacillus anthracis CapD inhibitors, primary screen, biochemical, fluorescence intensity; purified CapD enzyme, fluorescence intensity read-out; hits give low values; some hits fall short of the stated cut; z-score (test concentration not listed); 140,000 compounds, 0.23% hits;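 active means z-score under -4 in either of two replicates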;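 further: stock transfer was 100 nL into about 40 µL; score is relative to mean and spread of the plate; one replicate is shown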
AID504770: growth inhibition of E. coli YBA685, primary screen, V. cholerae RctB inhibitors | E. coli YBA685 rctB-dependent plasmid, OD600 growth, 3 h; hits give low values | z-score (no concentration beside the values) | 130,000 compounds, 0.27% hits;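 active means z-score under -2 on both plates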;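 further: wells of about 30 µL received 100 nL stock; score is relative to mean and SD of the test wells; the first replicate is given; strong numbers were not always called active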
* hit, by the source's call; . = not tested or not shown; & = joins results of further samples. This is a random part of the collection; overall some 0.37% were active at least once.

SMILES	Ba CapD inh	AID504770
CCCCN=Cc1c(O)[nH]c(=O)[nH]c1=O	0.45	-0.75
Fc1ccc(Nc2nc3ccccc3s2)cc1	-0.19	2
O=C(COC(=O)c1n[nH]c(=O)c2ccccc12)NC1C2CC3CC(C2)CC1C3 (stereo not given)	.	-0.4
COC(=O)c1ccc(CO/N=C(\N)c2c(-c3c(Cl)cccc3Cl)noc2C)o1	0.81	-0.35
CCN(CC)c1nc(-c2ccccc2O)nc2ccccc12	0.23	-0.1
CCCCc1nnc(SCC(=O)Nc2ccccc2)n1CC	0.3	0.2
CC(C)(C)c1cccc(C2(O)C(=O)c3ccccc3C2=O)c1O	-0.49	2.1
O=C(N=S1CCN(c2ncc(C(F)(F)F)cc2Cl)CC1)c1ccccc1	-0.005	-0.4
CC1CCN(C(=O)CN(CCc2ccccc2)S(C)(=O)=O)CC1	.	-0.55
COc1ccc(/C=C/C(=O)N2CCCC2)cc1OC	4.9	0.75
COC(=O)C1=C(C(=O)OC)SC(=C2C(=S)C(C)(C)N(C(=O)c3ccccc3)c3c(C)cc(C)cc32)S1	0.41	.
COc1ccccc1NC(=S)NCc1cccnc1	0.43	.
CC/C(O)=c1\ccc2cccc3nc(CC)nc1c23	-3.2	-0.75
CC(=O)NCCC(=O)Nc1ccc(-c2cn3ccsc3n2)cc1	.	-0.35
CC(C)NC(=O)c1n[nH]c(=O)c2ccccc12	-0.98	0.2
COc1ccc(C(=O)Nc2cccc(NC(C)=O)c2)c(OC)c1	0.16	0.05
O=C(Cc1cccs1)NCc1cccc(Br)c1	-0.33	-0.85
O=C(CSc1nnc(-c2cccnc2)o1)c1ccc(Br)cc1	0.52	.
CCC1Oc2ccc(C)cc2N(CC(=O)NC(C)CCc2ccccc2)C1=O (stereo not given)	1	-0.3
C=CCNC(=S)N1CCN(C2c3cccc4cccc(c34)C2NS(=O)(=O)c2ccccc2)CC1 (stereo not given)	0.48	.
Fc1ccccc1CO/N=C/c1cc2c(cc1Br)OCO2	-1	.
O=C(COc1ccc(Br)cc1C(=O)Nc1ccc(Cl)cc1)NC1CC1	-0.3	-0.15
CCCSc1nnc(NC(=O)C23CC4CC(CC(C4)C2)C3)s1	0.015	-0.45
S=c1nc(-c2ccccc2)n(-c2ccccc2)[nH]1	0.09	-1.1
CCC(C)(C)c1cc2cc(NC(=O)/C=C/c3ccccc3)ccc2[nH]1	-1.1	.
Cc1cc(N)c2ccccc2[n+]1CCCCCCCCCC[n+]1c(C)cc(N)c2ccccc21	-0.095&-0.33	-0.55
O=C(Cc1nncn1-c1ccccc1)c1ccc(O)cc1O	.	-0.1
C=CC(C)(O)CC[C@]1(C)[C@H]2CC(=O)C=C(C)[C@]2(C)C[C@@H](O)[C@@H]1C (stereo not given in full)	0.18	-0.5
O=C(OCCN1C(=O)c2ccccc2C1=O)c1ccc(Cl)cc1	0.4	0.95
COCc1cc(Cl)nc(-c2ccccc2)n1	0.1	0.45
Cc1c(NC(=O)/C(=C\c2ccccc2)NC(=O)c2ccccc2)c(=O)n(-c2ccccc2)n1C	-0.87	.
CSCC(=O)Nc1ccc(F)c(Cl)c1	-1.1	-1.3
COC(=O)c1cc2cccc(OC)c2cc1OC	114	0.1
CC(=O)Nc1ccc(NC(=O)CSc2nccc(=O)[nH]2)cc1	0.36	0.1
CCOC(=O)c1oc2ccccc2c1CN1c2cccc3cccc(c23)S1(=O)=O	.	-0.05
CCOC(=O)c1c(C)nc2cc(C)ccn12	0.64	-0.25
CCC1CN(C)CCC1(OC(C)=O)c1ccccc1 (stereo not given)	0.23	.
CCS(=O)(=O)N1CCN=C1SCc1cccc2ccccc12	-0.94	-0.6
Nc1c(-c2ccc(F)cc2)cnc2nc(SCCC(F)=C(F)F)nn12	-0.14	.
CCOC(=O)OC(C)OC(=O)C1N2C(=O)C(NC(=O)[C@H](N)c3ccccc3)C2SC1(C)C (stereo not given in full)	0.11	.
CCC(C)Sc1nnc(CNS(=O)(=O)c2ccc(F)cc2)n1C (stereo not given)	-0.41	.
Cc1ccc(OCc2ccc(Sc3ccc(Cl)cc3)c([N+](=O)[O-])c2)cc1	0.05	.
Cc1c(CC(Cl)(Cl)Cl)c2c(n1-c1ccc(OC(F)(F)F)cc1)CC(C)(C)CC2=O	0.035	.
NC(CN1CCOCC1)c1ccccc1 (stereo not given)	.	0.8
COc1ccc(CCN(C)CC2=CCC3CC2C3(C)C)cc1OC (stereo not given)	-0.39	0.7
COc1ccc(-c2c(C(F)(F)F)oc3c(CN4CCCCC4)c(O)ccc3c2=O)cc1OC	-0.62	.
CCC(=O)c1cc2ccccc2oc1=O	79	1.5
O=S(=O)(Nc1nccs1)c1ccccc1	.	-0.45
O=S1(=O)CCCCN1c1ccc(S(=O)(=O)N2CCCCC2)cc1	1	-0.55
COC(=O)CC1=C(C(=O)OC)C2(C(=O)Nc3ccc(Br)cc32)C(C(=O)OC)=C(N)O1 (stereo not given)	-0.14	-0.4
Cc1ccc(-c2nnc3ccc4ccccc4n23)cc1	-0.26	.
CCCc1c(C(=O)O)cnn1-c1cc(Cl)cc(Cl)c1	0.045	0.05
CC(=O)c1nnn(-c2ccc(F)cc2F)c1C	0.25	.
Clc1ccc(Cn2cc(/C=N/n3cnnc3)c3ccccc32)c(Cl)c1	-0.51	-0.3
O=C(O)Cc1ccc(NCc2ccc(Br)cc2)cc1	0.7	-0.65
COc1cc(C(=O)OCC(=O)Nc2ccc(C)cc2)cc(OC)c1OC	0.17	0.05
Cn1cccc1C1CCCN1CC(=O)NC(=O)NCc1ccccc1 (stereo not given)	.	-0.7
Cc1cc(NC(=O)/C=C/c2ccc(F)cc2)no1	20	-1.2
Cc1cc(C(C)(C)C)ccc1OCC(O)CNC1CCC(O)CC1 (stereo not given)	.	-0.7
CCOC(=O)c1sc2nc(C)nc(N3CCN(c4ccccn4)CC3)c2c1C	3.3	.
(cont.)
SMILES	Ba CapD inh	AID504770
Cc1cc(C(=O)COC(=O)c2ccc(-n3cnnn3)cc2)c(C)n1-c1cccc(F)c1	.	0.7
COc1ccc(COC(=O)C2=C(C)NC(=O)NC2c2ccccc2OC(C)C)cc1 (stereo not given)	0.65	.
COC(=O)c1cc(OC)c(OC)cc1NC(=O)c1ccccc1Br	-0.12	.
CCc1c(C)sc(NC(=O)c2cc(-c3cccs3)on2)c1C#N	1.6	1.4
O=C(CSCc1ccccc1)N1CCN(c2ccccc2)CC1	0.34	-0.3
Cc1cc(C)n(C(=O)C2CCCN2S(=O)(=O)c2ccc(Cl)cc2)n1 (stereo not given)	.	-0.95
CCOc1ccc(-c2nc(CSCC(=O)N3CCc4ccccc43)c(C)o2)cc1	0.7	-0.65
CCOC(=O)C1=C(C)Nc2nnnn2C1c1ccc(OCc2ccccc2)c(OC)c1 (stereo not given)	-0.77	.
Cc1nnc(SCC2=NN(c3nc4ccccc4s3)C(=O)C2)s1	4.2	-4.5
CCOC(=O)c1cc2c(N)c(C(=O)Nc3cccc(C(F)(F)F)c3)sc2nc1N	1.6	.
CCc1ccc(NC(=O)n2ncc3c(C)cccc32)cc1	0.48	0
Cc1ccc(S(=O)c2snnc2-c2ccc(Cl)cc2)cc1 (stereo not given)	0.025	0.35
CC12CN3CC(C)(CN(C1)P3(=O)Oc1ccccc1)C2=O (stereo not given)	0.14	-0.5
O=S(=O)(NCCc1ccccn1)c1cc(S(=O)(=O)c2ccccc2)cs1	-1.1	0.3
CCOC(=O)c1sc(C)nc1C1CCN(C(=O)OCC)CC1	-0.34	-0.75
O=C(Cn1[nH]c(=O)c2ccccc2c1=O)NCC(c1ccco1)N1CCCC1 (stereo not given)	.	0.15
O=C(NCCCN1CCN(c2cccc(Cl)c2)CC1)c1ccc(N2CCCS2(=O)=O)cc1	-0.01	-0.2
O=C1C=C(/C=C/c2cccs2)C[C@H](c2cccs2)[C@H]1n1cnc([N+](=O)[O-])c1	5.9	.
O=C(CCn1cccc1)NCC1COc2ccccc2O1 (stereo not given)	8.7	2.8
N#Cc1c(-c2ccccc2)nc(-c2ccccc2)[nH]c1=O	0.7	-0.8
COc1ccccc1CC1(C)NC(=O)NC1=O (stereo not given)	.	0
COCCOC(=O)C1=C(N)OC2=C(C(=O)CC(C)(C)C2)C1c1cccc([N+](=O)[O-])c1 (stereo not given)	-0.82	.
O=C(Oc1ccc(-c2nnco2)cc1)c1ccc2ccccc2c1	.	-0.55
COc1ccc2oc(=O)c(C(=O)NCc3ccco3)cc2c1	.	0.15
O=C(CSc1ncn[nH]1)Nc1cc(Cl)ccc1Cl	-0.92	-0.75
FC(F)(F)C1=Nc2ccccc2N=C(c2cccs2)C1	0.84	.
CCC(C(=O)NCc1ccccc1)N(C(=O)Cn1nnc(-c2cccs2)n1)c1ccccc1OC (stereo not given)	.	1.3
O=C(c1ccno1)N1CCN(Cc2ccccc2)CC1	.	1.6
O=C(OCc1cc(=O)oc2cc(O)ccc12)c1cnccn1	.	-0.2
COc1cnc(-c2ccccn2)nc1-c1ccc(C(F)(F)F)cc1	0.2	.
Fc1ccc(/C=N/Nc2nc3ccccc3nc2Cc2ccccc2)cc1	-0.71	.
CCOC(=O)C1=CN(c2ccc(OCC)cc2)C=C(C(=O)OCC)C1c1cccc(OC)c1	0.77	0.8
C=CCOc1c(I)cc(I)cc1C=Nc1c(C)n(C)n(-c2ccccc2)c1=O	-0.6	.
CCOc1cc2[nH]c(=O)n(CCCCC(=O)N3CCN(Cc4ccccc4)CC3)c(=O)c2cc1OCC	0.33	0.85
CCOC(=O)c1c(NC(=O)c2ccc(N3C(=O)C4C5C=CC(C5)C4C3=O)cc2)sc2c1CCCC2 (stereo not given)	-0.43	.
Cc1c(S(=O)(=O)c2ccc(Cl)cc2)csc1S(=O)(=O)N/N=C/c1c(Cl)cccc1Cl	0.025	.
O=C(NCC1CCCCC1)c1n[nH]c(=O)c2ccccc12	0.23	0.1
CCC(=O)c1ccc(OCC(=O)NCCOc2ccccc2)cc1	.	2.3
O=C(NCCCc1nc2ccccc2[nH]1)c1ccccc1	0.14	-0.85
COc1ccccc1NCC(=O)NN=C1CCN(Cc2ccccc2)CC1	.	-2.3
CC(C)CCCC(C)C1CCC2C3CC=C4CC(OC(=O)CCCCl)CCC4(C)C3CCC12C (stereo not given)	0.08	.
C#CC(C)(C)NC(=O)c1snnc1C	0.6	-0.55
COc1ccc(-c2cn3c4ccccc4nc3n2CCO)cc1	3.2	-1.8
O=C(CSc1nnc(Cc2ccccc2)o1)N1CCNC1=O	.	-0.55
c1cc2c(cc1CN1CCN(C3CCCCCC3)CC1)OCO2	0.5	-0.45
Nc1ccc(N=Cc2ccc3c(c2)OCCO3)cc1	0.68	0.55
O=C(Cn1cnnn1)N(CCc1ccccc1)c1nc(-c2ccccc2)cs1	.	-0.2
NC(=S)CN1C(=O)c2ccccc2S1(=O)=O	.	0.1
C=CCn1c(N)cc(=O)nc1SC(C)C(=O)Nc1cccc(Cl)c1 (stereo not given)	-0.045	0.8
CCN(CC)S(=O)(=O)c1ccc(N/N=C/C=C2/N(C)c3ccccc3C2(C)C)nc1	.	0.5
CCOCCOC(=O)COc1ccc2c(=O)c(Oc3ccc(C(C)(C)C)cc3)coc2c1	-0.45	.
N#Cc1ccc(COC(=O)c2ccc3noc(-c4ccccc4)c3c2)cc1	.	0.25
CCCSc1ccc2nc(NC(=O)OC)[nH]c2c1	6.9&-0.27&1.7	-0.55
O=C(O)C1CCC1C(=O)N1CCN(c2nc3ccc(Cl)cc3s2)CC1 (stereo not given)	-0.04	.
CC(C)c1ccc(-c2nnc(N)s2)cc1	.	-0.7
CCC(=O)Oc1oc(-c2ccccc2)nc1C=Nc1ccccc1C	.	0.6
CCN(Cc1nc2cc(OC)c(OC)cc2c(=O)[nH]1)C(=O)CC1CC2CCC1C2 (stereo not given)	.	0.35
COc1ccc(-c2nnn(CC(=O)N(CC(=O)NCc3ccccc3)c3ccc4c(c3)OCCO4)n2)cc1OC	.	0.8
C1=C[C@H]2c3ccccc3N[C@@H](c3cccc(OC4CSC4)c3)[C@H]2C1	-0.64	3.6
O=C(Nc1nc2ccccc2n1CCOc1ccccc1)c1ccco1	1.2	.
CN(C)C(=O)Nc1cccc(Cl)c1Cl	0.15	.
